Rango complex inh = prevents formation of the Rango-importin beta complex | Potency, µM (titrated, usually from 92.2 µM), for inactives: top-dose inhibition of complex formation | AID 540263 | actives 0.031% (n = 340,000) | Rango CFP/YFP FRET sensor + importin beta, 45 min; active = rising FRET ratio curve, often small or poorly fitted; inconclusive = mostly compound fluorescence or quenching in the first reads; inactive = flat curves in all reads;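 note: potency is the fitted concentration of half-maximal effect; 0% = DMSO wells and 100% = buffer wells lacking importin beta; nearly all actives have a fitted effect of over 15% in size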
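FRET biosensor (snurportin 1 IBB flanked by EYFP and cerulean), 50 nM, with compound 5 min, then 0.125 microM importin beta in PBS, 1 mM DTT, 0.02% Tween-20, 0.1% BSA. CFP/YFP ratio read after 45 min at room temperature; pre-read flags interference.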
Rango release inh = inhibitors of RanGTP-induced Rango-importin beta complex dissociation | O95149+P62826 | Biochemical FRET Rango-importin beta, RanGTP-induced dissociation | Potency, µM (series often up to 46.1 µM), inactives show at the highest dose activity change, negative = inhibition | actives 0.071% (n = 340,000) | AID 540253; active means falling FRET ratio curve, often poorly fitted, with flat reads before Ran was added; inconclusive means other falling curves, or compound fluorescence or quenching; inactive means flat or rising ratio curve;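 note: potency is the fitted concentration of half-maximal effect; % of control where 0% means no effect; nearly all actives have a fitted effect of over 45% in size; -100% = wells without RanGTP and RCC1; the record marks most hits as doubtful in a second field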
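Two FRET readings bracket the reaction: one 5 min after compound meets Rango–importin beta, another 45 min after RanGTP-RCC1 (0.6 uM Ran, 0.2 uM RCC1, 2 mM GTP) is added. Only the second defines inhibition.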
miR-21 reporter = raises the signal of a miR-21 reporter; AID 2288; HeLa miR-21 FLuc reporter, luciferase, 48 h; Potency, µM (top dose mostly 38.3 µM), for the others: at the top dose reporter change, positive = more light; 340,000 tested, under 10 active; active = well fitted rising curve with a large enough effect; inconclusive = small, poorly fitted or top-dose-only effect; inactive = no such curve, though single readings can be large or run the other way;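 note: % of control where 0% means no effect; miR-21 action dims this reporter so a rising signal means less miR-21 action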
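Compounds were titrated across several concentrations (up to approximately 40 uM) and incubated 48 hours with HeLa miR-21-FLuc reporter cells (miR-21 target sequence downstream of FLuc, endogenous miR-21). Readout was firefly luciferase luminescence after lytic detection reagent.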
GLA inh pH 4.5 = alpha-galactosidase A (human) inhibition, pH 4.5. P06280. purified enzyme, 4-MU-alpha-Gal fluorescence, pH 4.5. activity change, negative = inhibition, % at 105 µM. 230,000 tested, under 10 active. AID 1467; inconclusive = small, poorly fitted or top-dose-only inhibition, or a rising curve; inactive = flat fitted curve, though single readings scatter; no compound was filed as active;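 note: 0% = full activity with enzyme and -100% = basal without enzyme; dose as in the result columns while the protocol names 77 µM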
Target sequence (P06280 whole entry, looked up): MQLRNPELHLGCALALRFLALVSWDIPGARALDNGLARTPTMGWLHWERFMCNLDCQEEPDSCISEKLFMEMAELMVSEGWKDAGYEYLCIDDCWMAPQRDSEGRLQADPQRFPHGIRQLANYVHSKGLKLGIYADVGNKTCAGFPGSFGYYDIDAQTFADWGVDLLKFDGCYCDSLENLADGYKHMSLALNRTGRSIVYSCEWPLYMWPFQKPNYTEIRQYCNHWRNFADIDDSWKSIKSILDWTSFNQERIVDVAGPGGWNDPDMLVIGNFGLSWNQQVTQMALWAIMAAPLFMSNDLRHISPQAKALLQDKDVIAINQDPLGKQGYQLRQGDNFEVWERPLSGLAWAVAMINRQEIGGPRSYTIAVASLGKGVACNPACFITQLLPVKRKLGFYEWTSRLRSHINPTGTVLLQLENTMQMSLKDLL
* marks the source's active call; other numbers are inactive results; ? = inconclusive; · = no result given; & = joins results of further samples.

SMILES,Rango release inh,miR-21 reporter,Rango complex inh,GLA inh pH 4.5
COc1ccc(-c2nc(C)ncc2-c2ccc(Cl)cc2)c(O)c1,2%,-6%,3.1%,·
Cc1c(Cl)cccc1NC(=S)N1CCN(S(=O)(=O)c2cccs2)CC1,28%,11%,-4.3%,2
Cc1ccc2oc(=O)c3cnn(CC(=O)Nc4cc(-c5cccc(F)c5)no4)c3c2c1,-14%,-8%,1.2%,3
C/C(=N\NC(=O)Cn1nc(C)c(Br)c1C)c1cccs1,1%,0%,0.0%,-1
CC1CCCCC12NC(=O)N(CC(=O)OCC(=O)NCc1ccc(F)cc1)C2=O (configuration not stated),-20%,·,-0.1%,·
CCn1c(=S)[nH]c2cc(Cl)ccc21,13%,2%,-0.4%,4
O=C(Nc1cccc2ccccc12)C1CCN(C(=O)NCc2ccccc2)CC1,-5%,12%,-0.2%,3
O=c1ccn(C2CCCO2)c(=O)[nH]1 (configuration not stated),14%,·,6.1%,·
CCc1nnc(NC(=O)CCC(=O)NCc2ccc(OC)cc2)s1,-14%,6%,0.7%,-23
C/C(=N\N1CCN(Cc2ccccc2)CC1)c1ccco1,6%,-24%,-4.0%,3
Cc1ccc(C(=O)Nc2ccc(S(=O)(=O)N3CCCC3)cc2)o1,10%,-2%,-3.5%,·
O=C(c1ccco1)N1CCN=C1SCc1ccccc1F,7%,-9%,-6.2%,-13
Cc1cccc(-n2ccnc2SCC(=O)Nc2nccs2)c1,2%,-48%,5.4%,-1
CCOC(=O)C1=C(O)/C(=C/c2ccc(OCC(=O)O)c(OCC)c2)SC1=Nc1ccc(C)cc1,-16%,-8%,?,-4
C/C(=N\NC(=O)c1ccn[nH]1)c1cn(C)nc1C,15%,-53%,-0.5%,-10
CSc1nc2ccc(NS(=O)(=O)c3cccc(Cl)c3Cl)cc2s1,-5%,-6%,-2.2%,1
COc1ccc(-c2noc(CCC(=O)NC3CCN(Cc4ccccc4)CC3)n2)cc1,0%,6%,-0.7%,-9
O=C(O)CSc1nnc(-c2ccccc2O)n1Cc1ccccc1,20%,-4%,0.2%,-2
O=C(CC1(O)C(=O)Nc2ccccc21)c1ccccc1 (configuration not stated),2%,-2%,-1.2%,7
N#Cc1c(Cl)cccc1N1CCCC1,29%,-4%,0.3%,-9
CSc1ccc(CN(C)C(=O)C(Cc2ccccc2)NC(=O)c2ccccc2)cc1 (configuration not stated),-17%,-39%,0.8%,·
Cc1ccc(S(=O)(=O)NC(C(=O)N2CCN(S(=O)(=O)c3cccc(F)c3)CC2)C(C)C)cc1 (configuration not stated),-20%,·,?,·
O=C(Nc1ccccc1-c1ccccc1)c1cnccn1,-14%,-69%,2.9%,4
O=C(c1cccs1)N1CCN(Cc2ccccn2)CC1,-6%,-1%,0.4%,3
COc1ccc(C(CNC(=O)Nc2cccc(C)c2)N2CCN(C)CC2)cc1 (configuration not stated),0%,-7%,-1.3%,·
COC(=O)c1ccc2nc(NC(=O)CN3C(=O)CCC3=O)sc2c1,2%,-16%,6.0%,3
Cc1c(C(=O)CN2CCSCC2)c2ccccc2n1C,-7%,-9%,4.9%,-5
O=C(CSc1nc2ccccc2s1)NC(=O)NCc1ccco1,-8%,-5%,4.2%,4
O=C(COc1cccc2ccccc12)N1CCN(c2ccccn2)CC1,0%,-16%,0.3%,1
CCOc1ccc(C(=O)NC(C)(C)CC)cc1,-9%,-18%,0.8%,-4
COc1ccc(OC)c(S(=O)(=O)N/N=C(/C)c2c[nH]c3ccccc23)c1,-11%,-4%,-1.9%,·
O=C(COC(=O)c1ccccn1)NCc1cccc(Cl)c1,2%,·,-0.6%,·
COc1ccc(NS(=O)(=O)c2ccc(C)c(C(=O)N3CCCCCCC3)c2)cc1,-1%,·,-0.4%,·
C/C(=N/NS(=O)(=O)c1ccc(Cl)cc1)c1cccc(O)c1,8%,-9%,-0.7%,-2
CC1CN(C(=O)c2cc3c(=O)n4ccccc4nc3s2)CC(C)O1 (configuration not stated),-13%,-23%,?,?
Cc1oc(C(C)(C)C)cc1C(=O)NCC(=O)NCC(=O)O,-4%,4%,-3.4%,5
O=C(NC1CCCC1)C(c1ccncc1)N(Cc1ccccc1F)C(=O)c1csnn1 (configuration not stated),-2%,1%,-1.8%,·
CCOC(=O)c1ccc(NC(=O)CSC2=NN3CCCC(=O)N=C3S2)cc1,-11%,-3%,-0.8%,·
O=C(c1nnc(-c2ccc(Cl)cc2)o1)C1CCCC1,-9%,-22%,-0.7%,-3
Cc1onc(-c2ccccc2Cl)c1C(=O)N1CCCc2ccccc21,1%,24%,0.3%,7
CC(=O)Nc1ccc(S(=O)(=O)N2CCN(C(=O)c3ncoc3-c3cccc(F)c3)CC2)cc1,1%,-1%,5.1%,·
CC(C)(C)c1nnc2sc(SCC(O)=C(C#N)c3nc4ccccc4[nH]3)nn2c1=O,-17%,·,0.1%,·
CN(C)C(=O)CN1CCN(c2nc3nonc3nc2N2CCCCC2)CC1,-9%,0%,-3.5%,-3
Cc1cccc(CNc2ccc(C(CC(N)=O)NC(=O)c3cccc(Br)c3)cc2[N+](=O)[O-])c1 (configuration not stated),6%,0%,-0.2%,6
Cc1cc(/C=N\NC(=O)CC(=O)NC2CCCCC2)c(C)n1-c1ccc(Cl)c(Cl)c1,2%,-1%,-3.6%,7
C[C@H](NC(=O)[C@@H]1Cc2ccccc2CN1C(=O)OC(C)(C)C)C(=O)NCC1CCCO1 (some centres not stated),2%,0%,-2.7%,·
Cc1ccc(C(=O)O)cc1N=Cc1cc(Br)cc(Br)c1O,?,-3%,?,-1
Cc1ccc(/C=N/NC(=O)c2cc3c(s2)CCCC3)o1,-10%,·,-4.1%,·
Cc1cc(S(=O)(=O)Nc2cccnc2)c(Cl)cc1Cl,-5%,-1%,7.1%,·
O=C(O)CCSc1nnc(SCC(=O)NCC(F)(F)F)s1,0%,-1%,0.0%,-2

Laid out differently: 2 of the compounds above
CCOc1ccc(C(=O)NC(C)(C)CC)cc1
- Rango release inh: -9%
- miR-21 reporter: -18%
- Rango complex inh: 0.8%
- GLA inh pH 4.5: -4
CC(=O)Nc1ccc(S(=O)(=O)N2CCN(C(=O)c3ncoc3-c3cccc(F)c3)CC2)cc1
- Rango release inh: 1%
- miR-21 reporter: -1%
- Rango complex inh: 5.1%
- GLA inh pH 4.5: ·

Carrying on:
SMILES,Rango release inh,miR-21 reporter,Rango complex inh,GLA inh pH 4.5
Cn1nc(C(=O)Nc2ccc(S(=O)(=O)Nc3ncccn3)cc2)ccc1=O,16%,-2%,0.0%,5
C[C@H](CO)N1C[C@H](C)[C@@H](CN(C)C(=O)NC2CCCCC2)Oc2ccc(NC(=O)Cc3ccccc3)cc2C1=O,-14%,·,-2.8%,·
CCCCNC(=O)N(O)C1N(/N=C/c2cccs2)C(=S)SC1(C)C (configuration not stated),2%,-7%,0.1%,?
COc1ccccc1C(=O)Nc1c2c(nn1-c1ccc([N+](=O)[O-])cc1)CS(=O)(=O)C2,-19%,-1%,-1.3%,·
COc1cccc(NC(=O)CN(C)C(=O)c2cccnc2Sc2ccc(C)c(C)c2)c1,0%,·,1.7%,·
CC12COC3(C(=O)Nc4ccccc4)CC1CCC32C (configuration not stated),-6%,0%,-3.0%,1
O=C(Nc1ccccc1)Nc1nnc(-c2ccccc2)s1,11%,-19%,0.9%,2
NS(=O)(=O)c1ccc(NC(=O)COC(=O)c2ccc3c(c2)OCCO3)cc1,2%,-1%,1.5%,4
O=C(c1ccc(COc2c(F)c(F)c(F)c(F)c2F)o1)N1CCOCC1,-5%,-20%,-2.7%,-8
CCn1c2ccccc2c2cc(N=C3SC(CC(=O)Nc4ccccc4OC)C(=O)N3C)ccc21 (configuration not stated),1%,1%,3.1%,?
CC(=O)c1cccc(CN2CCCC(C(=O)Nc3ccc(-c4ccco4)cc3)C2)c1 (configuration not stated),?,0%,-1.2%,·
Cc1c(NC(=O)C(C)OC(=O)c2c3c(nc4ccccc24)CCC3)c(=O)n(-c2ccccc2)n1C (configuration not stated),-1%,-5%,-2.6%,4
CCOc1cc(CNn2cnnc2)cc(Br)c1OCC(=O)NC1CCCCC1,0%,-4%,0.0%,-11
O=S(=O)(NC1CCCCC1NS(=O)(=O)c1ccc(F)cc1)c1ccc(F)cc1 (configuration not stated),0%,-2%,1.4%,-12
CCOC(=O)c1nc(Nc2ccc(OC)cc2)c2ccccc2n1,?,1%&-1%,?,·
N#Cc1cc2c(nc1SCc1ccc(Cl)nc1)CCCCC2,-8%,-31%,-0.5%,6
O=C(O)CCCNC(=O)c1ccccn1,21%,-8%,0.3%,-4
CC[C@@H](NS(=O)(=O)c1ccc(C)cc1)C(=O)Oc1ccc2c3c(c(=O)oc2c1)CCC3,-30%,-19%,-5.9%,?
N#Cc1ccc(COc2ccc(CCO)cc2-n2nc3ccccc3n2)cc1,8%,10%,-2.7%,-6
CCOC(=O)C1(C(C)(C)CC)CC(CSc2nc3ccccc3[nH]2)OC1=O (configuration not stated),?,14%,-6.2%,-5
Cc1nc(NC(=O)CSc2nnc(C3CC3)n2N)c(Cl)cc1Cl,-9%,·,-0.3%,·
N#Cc1c(N)n(-c2ccc(O)cc2)c2nc3ccccc3nc12,?,-12%,?,-21
CC(C)(C)C(=O)Nc1ccc(C(=O)Nc2cc(NC(=O)c3ccc(NC(=O)C(C)(C)C)cc3)cc(C(=O)O)c2)cc1,4%,-32%,?,·
COCCN(Cc1cc2cc(C)ccc2n2nnnc12)C(=S)Nc1ccc(C)cc1,-11%,-1%,3.0%,2
CCOP(=O)(Nc1cccc2oc(=O)c3ccccc3c12)OCC,-1%,·,-4.4%,·
O=C(CCC(=O)N1CCN(c2ccccc2F)CC1)c1ccc(F)cc1,14%,-3%,3.0%,1
O=C(C1=C[C@@H](c2ccc(C(F)(F)F)cc2)C[C@@H](OCCCCO)O1)N1CCOCC1,21%,-8%,-3.9%,-1
CCOc1ccc(OCCCC(=O)O)cc1,22%,0%,3.8%,5
CCOc1ccc(NCC(=O)c2ccc(C)cc2)cc1,-1%,-2%,-5.2%,4
O=C(NCc1cccs1)C1CCCN(S(=O)(=O)c2cccs2)C1 (configuration not stated),1%,-3%,-0.5%,-6
Cc1ccc(OCC(=O)Nc2ccc(S(=O)(=O)N3CCCC3)cc2)cc1,-10%,1%,-0.3%,·
O=C(NCc1ccc(F)cc1)C1CCC(CNc2c(N3CCOCC3)c(=O)c2=O)CC1 (configuration not stated),-2%,1%,2.9%,-1
COCC(C)NC(=O)c1nn(Cc2ccccc2)c(=O)c2ccccc12 (configuration not stated),-9%,-2%,0.4%,·
CCOC(=O)c1sc(-c2cccc(C(F)(F)F)c2)nc1O,?,-3%,?,-8
CCCc1cc(=O)[nH]c(SCC(=O)N(CCOC)c2c(N)n(Cc3ccccc3)c(=O)[nH]c2=O)n1,-2%,·,1.6%,·
CC(=O)Nc1ccc(S(=O)(=O)NC2(C(F)(F)F)NC(=O)N(C3CCCC3)C2=O)cc1 (configuration not stated),26%,-4%,-0.7%,-6
N#C/C(=C\c1ccc(Cl)cc1)C(=O)NC1CC1,-4%,·,3.6%,·

Single entries from the results shown.
For Rango complex inh, `CCCc1cc(=O)[nH]c(SCC(=O)N(CCOC)c2c(N)n(Cc3ccccc3)c(=O)[nH]c2=O)n1` is entered as 1.6%
For Rango release inh, `N#C/C(=C\c1ccc(Cl)cc1)C(=O)NC1CC1` is entered as -4%
For GLA inh pH 4.5, `CCOc1ccc(OCCCC(=O)O)cc1` is entered as 5
For miR-21 reporter, `CCOC(=O)c1sc(-c2cccc(C(F)(F)F)c2)nc1O` is entered as -3%

Not all compounds are listed, so the mix of outcomes need not match the whole.
